GIV-Gai inh: GIV-Galpha-i interaction inhibition | Galpha-i3/FITC-GIV peptide fluorescence polarization, 90 min; stronger effect = lower value; scaled: aluminum fluoride 0%, vehicle 100% | percent of control (FP), % (test concentration not listed) | 210,000 tested, 0.42% active | AID 1224905;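 active means replicate mean at 85% of control or lower, very high polarization wells dropped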;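 further: wells of about 15 µL received 100 nL stock; the first replicate is given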
Target sequence (P08753 whole entry, looked up): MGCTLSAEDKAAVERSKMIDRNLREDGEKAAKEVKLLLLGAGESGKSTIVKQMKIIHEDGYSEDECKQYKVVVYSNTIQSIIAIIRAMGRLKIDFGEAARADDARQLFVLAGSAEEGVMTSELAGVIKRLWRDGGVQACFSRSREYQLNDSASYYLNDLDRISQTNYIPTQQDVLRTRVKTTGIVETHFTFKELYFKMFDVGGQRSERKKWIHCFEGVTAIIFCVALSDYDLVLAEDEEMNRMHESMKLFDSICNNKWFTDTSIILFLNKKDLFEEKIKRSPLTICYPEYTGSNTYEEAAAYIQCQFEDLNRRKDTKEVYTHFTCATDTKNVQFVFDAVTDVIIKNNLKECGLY
Sa growth inh: blocks Staphylococcus aureus growth. relative growth, % (no concentration beside the values). S. aureus RN4220 growth, OD600, 20 h, 42 °C; stronger effect = lower value. 170,000 tested, 0.53% active. AID 720641;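 active means growth at 42 °C up to 50% and 20 or more points under that at 30 °C, or under 10% at both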;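 further: 300 nL library stock went into each well; scaled to the means of positive and negative controls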
HCMV NEC inh: cytomegalovirus nuclear egress complex inhibition; HTRF UL50-UL53 interaction, normalized percent inhibition; 190,000 tested, 0.15% active; AID 1918969; inhibition, % (no concentration beside the values);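 active means both replicates at 50% or more, plus weaker picks with an unusually low signal ratio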;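 further: stock transfer was 100 nL into about 20 µL; 0% = negative control wells and 100% = wells with untagged competitor protein; inactives centre near -12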
Sa growth inh second temp: also measured in Sa growth inh; calls as there; relative growth, %; measured here: growth at 30 °C;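 optical density after 20 h as mean of two plates; 100% = untreated growth and lower means inhibition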
Active calls of the source: *; · = no result given; & = joins results of further samples.

No.	mol	GIV-Gai inh	Sa growth inh	Sa growth inh second temp	HCMV NEC inh
1	CCCCN(CC)CCNC(=O)c1cc2c(=O)[nH]c3ccccc3c2n1C	99	104	92	-6
2	COc1cc(NC(=O)CCCSc2nc(-c3ccco3)cc(C(F)(F)F)n2)cc(OC)c1OC	101	84	89	-28
3	CCN(Cc1ccccc1)c1ccc(C2C3=C(CCCC3=O)Nc3[nH]c(=O)[nH]c(=O)c32)cc1 (stereo unspecified)	·	82	55	-5
4	CCOC(=O)C1=C(CN2CCN(c3cc(C)ccc3C)CC2)NC(=O)NC1c1ccc(Cl)cc1 (stereo unspecified)	103	103	91	-21
5	CCN(Cc1ccccc1)C(=O)C1CCN(S(=O)(=O)c2ccc3c(c2)CCCN3C(C)=O)CC1	101&105	106	80	·
6	CC(C)c1ccc(S(=O)(=O)c2nnn3c2nc(NC2CCCC2)c2sccc23)cc1	103	99	79	·
7	N#CC(C(=O)c1ccc(-c2nc3ccccc3s2)s1)c1nc2ccccc2s1 (stereo unspecified)	·	68	69	-25
8	CCN(CC)CCNC(=O)c1cn(CC)c2ccc(S(=O)(=O)N3CCOCC3)cc2c1=O	102	103	93	-19
9	Cc1ccc(Cl)cc1NC(=O)CN1C(=O)COc2ccc(S(=O)(=O)N3CCCCCC3)cc21	102	100	95	·
10	O=C(Nc1ccc(S(=O)(=O)N2CCCCC2c2cccnc2)cc1)c1ccc2c(c1)OCO2 (stereo unspecified)	101	108	97	-9
11	O=C(O)c1cc(=O)cc(C(=O)O)o1	·	91	103	-6
12	CCOC(=O)C1CCN(CC(=O)Nc2ccc(C(F)(F)F)cc2Cl)CC1	99	94	90	-4
13	O=C1CCCN1CCCNS(=O)(=O)c1cccc(Br)c1	·	85	90	-12
14	O=C(OC(C(=O)NC1CCCCC1)c1ccccc1)c1ccco1 (stereo unspecified)	109	96	103	5
15	CCOc1cc(N)c(Cl)cc1C(=O)NCC1CN(Cc2ccc(F)cc2)CCO1 (stereo unspecified)	·	106	96	-25&-31
16	Cc1nc2cc(C(=O)NC3CCN(Cc4ccccc4)CC3)ccc2n(Cc2ccccc2)c1=O	111	·	·	-29
17	CCOC(=O)c1sc(N2C(=O)c3oc4ccc(C)cc4c(=O)c3C2c2ccccc2F)nc1C (stereo unspecified)	106	100	103	19
18	O=C(Nc1cc(Cl)cc(Cl)c1)C(Sc1ncccn1)c1ccccc1 (stereo unspecified)	·	100	84	-34
19	COc1cc(C2c3c(-c4ccccc4O)n[nH]c3C(=O)N2Cc2ccncc2)cc(OC)c1OC (stereo unspecified)	100	99	95	-13
20	Cc1[nH]c(=S)[nH]c(=O)c1Cc1ccccc1	99&96	111&81	95&82	8
21	CCOC(=O)Cc1nc(C)cs1	·	85	83	-11
22	COC(=O)c1cc(C(=O)Nc2ccccc2C)c(=O)[nH]c1C	100	·	·	-14
23	C=CCOc1cccc(C(=O)NCC)c1	107	101	98	-23
24	Cc1ccc(S(=O)(=O)N2CCc3nc(N4CCCCC4)ncc3C2)c(C)c1	108	·	·	-15
25	COc1ccc(Cl)cc1N(C)C(=O)c1ccc2c(=O)n3c(nc2c1)CCCCC3	104	103	64	-5
26	Cc1ccc2nc(COC(=O)c3ccc4c(c3)OCCO4)cc(=O)n2c1	·	89	90	-6
27	CC(C)NC(=O)C1CCN(Cc2cnn(-c3ccccc3)c2-n2cccc2)CC1	97	103	89	-16
28	O=C(Cn1cnc2sccc2c1=O)NC1CCS(=O)(=O)C1 (stereo unspecified)	·	111	91	-3
29	COc1ccc(Cl)cc1N1C(=O)C2C(c3ccccc3F)NN(C(=O)c3ccc(C)cc3)C2C1=O (stereo unspecified)	99	105	89	·
30	O=C(NC1CC1)c1c(-c2ccccc2)nnc2ccccc12	100	·	·	-76
31	O=C(NCCCN1CCN(C2CCCCC2)CC1)c1ccc2c(c1)NC(=O)C1CCCCN21 (stereo unspecified)	107	·	·	-4
32	Cc1ccc(CNC(=O)N2CCn3cccc3C2C)cc1 (stereo unspecified)	109	104	91	-27
33	COc1ccc(S(N)(=O)=O)cc1-c1nc(C(C)C)no1	105	·	·	16
34	CCOC(=O)c1cc(C#N)c(SCC(=O)OCc2ccc(C#N)cc2)nc1C	·	96	94	-5
35	COc1ccc(CCNC(=O)c2ccc3nc(-c4ccccc4NC(C)=O)c(=O)[nH]c3c2)c(OC)c1	103	91	59	·
36	CCCc1cc(=O)[nH]c(Nc2ccccc2)n1	107	110	104	77*
37	CC(=O)Nc1nnc(CCCCn2c(-c3nonc3NC(C)=O)nc3ccccc32)s1	102	82	77	-2
38	CCn1c(=O)c(=O)[nH]c2cc(C(=O)NCc3ccc4c(c3)OCO4)ccc21	·	118	85	6
39	CCc1c(C)c(C#N)c2nc3ccccc3n2c1N1CCN(CCO)CC1	105	118	70	·
40	COc1cccc(NC(=O)CNC(=O)Cn2c(C)cc3ccccc3c2=O)c1	103	108	88	-26
41	O=C(O)CCN1CCn2c3c(c4cc(C5CCCCC5)ccc42)CCCC31 (stereo unspecified)	·	104	81	-27
42	Cc1cccc(CNC(=O)CCn2ccc3cc(S(=O)(=O)N4CCCC4)ccc32)c1	101	100	85	·
43	COc1cccc(NC(=O)c2c(C)nn(-c3cccc(C)c3)c2-n2cccc2)c1	104	132	84	·
44	O=C(Nc1ccc(Cl)cc1)c1nccnc1CO	98	99	88	·
45	CC(C)COC(=O)CCn1[nH]c(=O)c2ccccc2c1=O	95	80	89	·
46	CCOc1ccc(CCNC(=O)CN2C(=O)c3cccnc3Oc3ccc(C)cc32)cc1OCC	109	97	92	·
47	O=C(Nc1ccc2nc(SCC(=O)N3CCOCC3)sc2c1)c1ccc(Br)cc1	102	115	87	-5
48	Cc1cc(N2CC(=O)N(CCc3ccccc3)C(=O)C2)nc(-n2nc(C)cc2C)n1	102	91	86	-5
49	O=C(Cn1c(=O)n(Cc2cccs2)c(=O)c2ccc(Cl)cc21)NCC1CCCO1 (stereo unspecified)	106	95	106	4
50	CCN(CC)C(=O)c1cccnc1Oc1ccc(Cl)cc1	103	99	93	-10
51	CSc1n[nH]c(=O)c2cc(-c3ccco3)nn12	106	·	·	-16
52	CSc1ccc(C(=O)NC(=O)Nc2cc(C)on2)s1	99	96	86	·
53	CN(C)c1ccc(C2OCCN2C(=S)Nc2ccccc2F)cc1 (stereo unspecified)	100	120	88	-38
54	Cc1ccc(NS(=O)(=O)c2c(C)noc2C)cc1	103	83	75	-16
55	O=C(O)COCC(=O)Nc1nnc(C(F)(F)F)s1	107	98	91	4
56	O=C(c1cc2ccccc2oc1=O)N1CCCCC1	97	99	86	·

Next structures
No.	mol	GIV-Gai inh	Sa growth inh	Sa growth inh second temp	HCMV NEC inh
57	Cc1ccccc1CN1C(=O)C(C)CNc2ccccc21 (stereo unspecified)	102	·	·	-9
58	CCOc1ccc(-c2cc(NC(=O)c3cccc(Cl)c3)c(C(=O)OC)s2)cc1	108	107	99	0
59	CCn1cc(C2N3CC4(C)CN2CC(C)(C3)C4O)c2ccccc21 (stereo unspecified)	98	116	92	·
60	Cc1c(C(=O)OC2CCCCC2)sc2ncn(CC(N)=O)c(=O)c12	100	92	88	-39
61	O=C(CSc1nnnn1C1CC1)Nc1ccc2c(c1)CCC2	·	92	97	-4
62	CC(C)CNC(=O)c1ccc2c(=O)n(CC(C)C)c3nn(CC(=O)NC4CCCC4)c(=O)n3c2c1	102	·	·	-32
63	COc1ccccc1NC(=O)Nc1nc(CC(=O)N2CCCC2)cs1	102	81	89	-41
64	CCCCC1CCC(C(=O)N2CC(=O)Nc3ccc(F)cc3C2c2ccc(F)cc2)CC1 (stereo unspecified)	102	78	76	-6
65	Cn1nnnc1SCCNCc1cccnc1	102	·	·	-14
66	COc1ccc(NC(=O)NCCCn2c(-c3ccc(F)cc3)nc3cccnc32)cc1OC	105	·	·	-12
67	CCC(Oc1ccc(F)cc1)C(=O)Nc1onc2c1CCCC2 (stereo unspecified)	100	·	·	-20
68	O=C(OCCN1C(=O)c2cccc3c(N4CCOCC4)ccc(c23)C1=O)c1ccc(S(=O)(=O)N2CCCCC2)cc1	107	·	·	-14
69	O=C(C(Sc1ccccc1)c1ccccc1)n1cnc2ccccc21 (stereo unspecified)	107	100	94	·
70	Cc1cc(=O)nc2c3ccccc3n(CC(=O)NC3CCCc4ccccc43)n12 (stereo unspecified)	104	87	82	5
71	CC(C)c1nn2c(=O)cc(COc3cccc(NS(C)(=O)=O)c3)nc2s1	101	98	88	-10
72	CCC(Cn1nnn(-c2ccccc2)c1=O)NC(=O)Cc1nn(CC)c(=O)c2ccccc12 (stereo unspecified)	101	94	94	-9
73	COc1ccc(CC(=O)NCc2ccc3c(c2)CCN3C(=O)c2ccccc2)cc1OC	108	100	84	·
74	CCCNC(=O)Nc1cccc(-c2noc(-c3cccc(Cl)c3)n2)c1	107	·	·	-11
75	Cc1cccc(N2C(=O)SC(C)C2=O)c1 (stereo unspecified)	·	124	90	-7
76	CC(=O)Nc1scc(-c2ccccc2)c1C(=O)N1CCOCC1	103	101	80	-24
77	COc1ccc(N2C(=O)CCS2(=O)=O)cc1S(=O)(=O)Nc1ccc(Cl)cc1	105	·	·	-9
78	COc1ccc(-n2nnnc2C2CCN(S(=O)(=O)c3c(C)cc(C)cc3C)CC2)cc1	104	·	·	-15
79	CC(C)CN1C(=O)S/C(=C\c2ccc(F)cc2)C1=O	96	109	78	-28
80	Cc1cc(C)n(-c2nc3ccccc3nc2Nc2cccc(C(F)(F)F)c2)n1	111	103	90	-20
81	CSc1ccccc1NC(=O)CN(C)C(=O)c1cnn(-c2ccccc2)n1	·	100	89	-17
82	CCOC(=O)c1c(/N=C/C2C(=O)NC(=S)NC2=O)sc2c1CCCCC2	-21*	125	77	·
83	N=c1oc2c3c4c(cc2cc1C(=O)Nc1ccccc1)CCCN4CCC3	-62*	109	89	-4
84	Cc1ccc(C(=O)C(C)Sc2nnnn2C)cc1 (stereo unspecified)	·	72	90	-1
85	Cc1ccc(CS(=O)Cc2ccc(C(=O)NCC3CCCO3)o2)cc1 (stereo unspecified)	102	108	90	-15
86	Cc1ccc(NC(=O)CS(=O)CC(=O)NC2CCN(Cc3ccccc3)CC2)c(C)c1 (stereo unspecified)	103	113	106	2
87	CC(C)S(=O)(=O)c1ccc(N2CCN(c3ccc(Cl)cc3)CC2)nn1	96	·	·	-26
88	COc1ccc(-c2ccnc(SCC(=O)N(C)C)n2)cc1	98	86	85	-24
89	N#CC(C#N)=CNC1CCSC1 (stereo unspecified)	102	96	92	-25
90	Cc1ccc(S(=O)(=O)NCCN2CCN(Cc3ccc(Br)s3)CC2)cc1	·	95	83	-32
91	COc1ccc(-n2c(SCc3nc4ccccc4s3)nc3ccccc32)cc1	·	106	96	10
92	CCOc1cnn(C)c(=O)c1OCC	99	99	104	-18
93	COc1ccc(N2CCN(c3ncnc4sc(C(=O)NCc5cccnc5)c(C)c34)CC2)cc1	106	·	·	-13
94	Cc1cc(C)c2c(n1)SCCN2C(=O)Nc1ccc(C)c(C)c1	105	·	·	-6
95	Cc1ccc(N2CC(C)Cn3c2nc2c3c(=O)n(CC(=O)O)c(=O)n2C)cc1 (stereo unspecified)	102	120	94	7
96	Cn1cnnc1SCc1nc2ccccn2c1Br	·	105	93	-12
97	CCOC(=O)c1c(NC(=O)CN2CCC3(CC2)OCCO3)sc(C)c1C	107	95	99	8
98	CN1CCN(S(=O)(=O)c2ccc3c(c2)C(=NO)c2cc(S(=O)(=O)N4CCN(C)CC4)ccc2-3)CC1	95	94	78	-52
99	O=c1[nH]cnc2c1CN=N2	106	85	92	-24
100	O=C(CCS(=O)(=O)c1cccc2nsnc12)NC1CCCCC1	91	94	83	·
101	NS(=O)(=O)c1cccc(C(=O)NCc2ccccc2)c1	·	101	89	-15
102	CSC1=NC(C)(C)CC12C=CC(=O)C=C2	102	100	85	10
103	COc1ccc(OC)c(S(=O)(=O)N2CCC(CN3CCC(C)CC3)CC2)c1	104	·	·	-23
104	O=C(Cn1cnc2c(cnn2CCO)c1=O)N1CCCc2ccccc21	104	94	91	-19
105	O=c1[nH]c(SCc2ccccc2)nc2c1CCCC2	99	108	88	-6
106	CC(C)(CO)Nc1c[nH]c(=O)[nH]c1=O	103	87	86	-30
107	Cc1occc1C(=O)Nc1cc(C(C)(C)C)on1	102	115	107	5
108	CC(C)Cc1cc(-c2nnc3sc(-c4cccc(N(C)C)c4)nn23)n[nH]1	105	·	·	-42
109	COc1ccccc1C(=O)ON1C(=O)CCC1=O	99	95	86	-1

Screens from PubChem BioAssay.
